Screening data from PubChem BioAssay.
NOMO-1 viab = NOMO-1 AML cell viability reduction, primary screen, STK33 inhibitor project, CellTiter-Glo luminescence | NOMO-1 AML viability, 72 h | inhibition, % (test concentration not listed) | 37,000 tested, 7.5% active | AID 2330, 2010;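 active = most replicates above 80%; inconclusive = exactly half above 80%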;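 note: wells of about 30 µL received 25 nL stock; 0% = median of vehicle wells and 100% = reference inhibitor level; the first replicate is given; inactives centre near 10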
Starred values were filed as active, the others as inactive; ? = inconclusive. Some of the compounds tested, so the mix of outcomes need not match the whole.

SMILES	NOMO-1 viab
CC(C)NC(=O)Nc1ccc2c(c1)C(=O)N([C@H](C)CO)C[C@H](C)[C@H](CN(C)C(=O)NC1CCCCC1)OCCCC[C@@H](C)O2	21
C=C(CC/C=C(\C)C(=O)O)C1(O)CC=C(C)CC1 (configuration not stated)	9
Cc1nnc(SCC(=O)Nc2sc3c(c2C#N)CCC(C(C)(C)C)C3)s1 (configuration not stated)	40
Clc1ccc2nc(Cl)cc(-c3ccccc3)c2c1	71
C[C@H]1CN([C@@H](C)CO)C(=O)c2cc(NC(=O)c3ccncc3)ccc2O[C@@H]1CN(C)Cc1ccccc1	13
CC(C)NC(=O)Nc1cccc2c1O[C@H](CN(C)S(=O)(=O)c1ccccc1)[C@H](C)CN([C@H](C)CO)C2=O	-4
C=CC1(C)C[C@H](OC(=O)C(C)CO)[C@H]2C(=C)C(=O)O[C@@H]2C1C(=C)CO (some centres not stated)	115*
C=CCn1c(SCc2nc3ccccc3[nH]2)nnc1-c1cccc(C)c1	1
C[C@@H]1CN([C@@H](C)CO)C(=O)c2cc(NS(C)(=O)=O)ccc2O[C@@H]1CN(C)C(=O)Nc1ccc(F)cc1	4
C[C@@H]1CN([C@H](C)CO)C(=O)c2cc(NS(=O)(=O)c3cccs3)ccc2O[C@H]1CN(C)Cc1ccncc1	-5
Cc1ccc(S(=O)(=O)N(C)C[C@@H]2Oc3ccc(NS(=O)(=O)c4ccc(Cl)cc4)cc3C(=O)N([C@@H](C)CO)C[C@@H]2C)cc1	-1
C[C@@H]1CN([C@@H](C)CO)C(=O)c2cc(NC(=O)C3CC3)ccc2O[C@@H]1CN(C)C(=O)Nc1ccccc1	-3
O=C(NCCCN1CCOCC1)Nc1ccc(Cl)cc1	12
C[C@H](CO)N1C[C@H](C)[C@H](CN(C)C(=O)Nc2ccccc2)Oc2ccc(NC(=O)CCN3CCOCC3)cc2CC1=O	3
C[C@@H]1CN([C@H](C)CO)C(=O)c2cccc(N(C)C)c2O[C@H]1CN(C)Cc1ccc(C(=O)O)cc1	14
C[C@@H]1CN([C@H](C)CO)C(=O)Cc2cc(NS(=O)(=O)c3ccccc3)ccc2O[C@@H]1CN(C)S(=O)(=O)c1ccc(F)cc1	-6
COc1ccc(-n2c(SCC(=O)N(c3ccccc3)c3ccccc3)nc3ccccc3c2=O)cc1	20
C[C@@H]1CN([C@H](C)CO)C(=O)Cc2cc(NC(=O)Nc3ccc(F)cc3)ccc2O[C@H]1CN(C)CC1CCCCC1	?
COc1cccc(NC(=O)c2cc([N+](=O)[O-])ccc2NCc2cccnc2)c1	24
C[C@@H]1CN([C@@H](C)CO)C(=O)Cc2cc(NS(=O)(=O)c3cn(C)cn3)ccc2O[C@@H]1CN(C)C(=O)Nc1ccc2c(c1)OCO2	14
Cc1noc(C)c1S(=O)(=O)Nc1ccc2c(c1)CC(=O)N([C@@H](C)CO)C[C@H](C)[C@@H](CN(C)CC1CCCCC1)O2	29
C[C@H](CO)N1C[C@H](C)[C@@H](CN(C)S(=O)(=O)c2ccc(Cl)cc2)Oc2c(NC(=O)Nc3ccc(F)cc3)cccc2C1=O	36
CC(C)NC(=O)Nc1ccc2c(c1)CC(=O)N([C@H](C)CO)C[C@H](C)[C@H](CN(C)Cc1ccc(-c3ccccc3)cc1)O2	42
C[C@H]1CN([C@@H](C)CO)C(=O)c2cc(NS(=O)(=O)c3ccc(Cl)cc3)ccc2O[C@H]1CN(C)CC1CCCCC1	42
C[C@H]1CN([C@@H](C)CO)C(=O)c2cc(NS(=O)(=O)c3ccc(F)cc3)ccc2O[C@@H]1CN(C)S(=O)(=O)c1cn(C)cn1	-3
C[C@H]1CN([C@@H](C)CO)C(=O)c2cccc(NC(=O)Nc3ccc(F)cc3)c2O[C@@H]1CN(C)S(=O)(=O)c1ccc(Cl)cc1	11
O=C(c1ccncc1)N1C2C=CC(C2)C1(C(F)(F)F)C(F)(F)F (configuration not stated)	57
COC(=O)c1sccc1NC(=O)CN1c2cccc3cccc(c23)S1(=O)=O	30
CNC[C@H]1Oc2c(NC(=O)Nc3ccc4c(c3)OCO4)cccc2C(=O)N([C@H](C)CO)C[C@@H]1C	21
Cc1noc(C)c1NC(=O)Nc1ccc2c(c1)C(=O)N([C@@H](C)CO)C[C@@H](C)[C@H](CN(C)Cc1ccncc1)O2	34
Cc1ccc(C2=NN(C(=O)CCC(=O)O)C(c3ccc(F)cc3)C2)cc1 (configuration not stated)	35
Cc1ccc(S(=O)(=O)Nc2ccc3c(c2)C(=O)N([C@@H](C)CO)C[C@@H](C)[C@@H](CN(C)C(=O)Nc2ccccc2)O3)cc1	17
COc1ccc(C(=O)CSc2ncn(-c3ccccc3)n2)cc1OC	6
Cc1cc(Cl)ccc1OCC(=O)Nc1cccc(NC(=O)c2ccccc2Cl)c1	23
C[C@@H]1CN([C@@H](C)CO)C(=O)c2cc(NS(=O)(=O)c3ccccc3)ccc2O[C@@H]1CN(C)CC1CCCCC1	-5
CC(C)(C)c1cc(C(=O)NCc2ccco2)ccn1	15
C[C@H]1CN([C@@H](C)CO)C(=O)Cc2cc(NC(=O)Cn3cnnn3)ccc2O[C@H]1CN(C)Cc1ccncc1	12
Cc1noc(C)c1S(=O)(=O)Nc1ccc2c(c1)CC(=O)N([C@@H](C)CO)C[C@@H](C)[C@@H](CN(C)CC1CC1)O2	12
C[C@H]1CN([C@@H](C)CO)C(=O)c2cc(N(C)C)ccc2O[C@@H]1CN(C)C(=O)Nc1cccc2ccccc12	15
Cc1oc2nc(SCC(=O)N3CCCCC3)nc(N)c2c1C	-11
CS(=O)(=O)N(CC(=O)Nc1ccccc1C(=O)N1CCOCC1)c1ccc(Cl)cc1	5
C/C=C(\C)C(=O)O[C@H]1C=C(CO)C(=O)[C@H](OC(C)=O)[C@H]1C(C)C	122*
C[C@@H]1CCCCO[C@@H](CN(C)C(=O)Nc2ccc3c(c2)OCO3)[C@@H](C)CN([C@H](C)CO)C(=O)c2cc(NC(=O)Nc3ccc4c(c3)OCO4)ccc2O1	39
C[C@@H]1CN([C@H](C)CO)C(=O)c2cccc(NC(=O)Nc3ccc(C(F)(F)F)cc3)c2O[C@@H]1CN(C)CC1CC1	20
C[C@H](CO)N1C[C@H](C)[C@@H](CN(C)C)Oc2ccc(NC(=O)Nc3cccc4ccccc34)cc2C1=O	6
O=C(O)CCc1c(C(=O)O)[nH]c2cc(Cl)cc(Cl)c12	-17
CC(C)NC(=O)Nc1ccc2c(c1)C(=O)N([C@@H](C)CO)C[C@H](C)[C@@H](CN(C)C(=O)Nc1ccccc1)O2	0
COc1ccc(NC(=O)N(C)C[C@@H]2Oc3ccc(NC(=O)Cc4cn(C)c5ccccc45)cc3C(=O)N([C@H](C)CO)C[C@@H]2C)cc1	49
C[C@@H]1CN([C@H](C)CO)C(=O)c2cccc(NC(=O)Nc3ccccc3)c2O[C@H]1CN(C)C(=O)NC1CCCCC1	15
C[C@H]1CN([C@@H](C)CO)C(=O)c2cc(NC(=O)Nc3cccc4ccccc34)ccc2O[C@@H]1CN(C)C	-2
Following part:
SMILES	NOMO-1 viab
CC(C(=O)Nc1ccccc1-c1ccccc1)N(c1ccccc1)S(C)(=O)=O (configuration not stated)	14
O=C(Nc1ccccc1C(=O)O)c1cccc(NS(=O)(=O)c2ccc(Cl)cc2)c1	-10
COc1ccccc1NC(=O)COc1ccc(Cl)cc1CO	31
Cc1ccc2c(c1)NC(C(F)(F)F)(C(F)(F)F)NC2=O	18
Cc1ccc(NC(=O)C(C)n2cc([N+](=O)[O-])cn2)cc1C (configuration not stated)	3
C[C@@H]1CN([C@H](C)CO)C(=O)c2cccc(NS(=O)(=O)c3ccccc3)c2O[C@H]1CN(C)CC1CC1	14
CCOc1ccc(NC(=O)CC2C(=O)NCCN2C(=O)c2ccccc2)cc1 (configuration not stated)	-7
Cc1cc(C(=O)Nc2cccc3c2O[C@H](CN(C)S(=O)(=O)c2ccc(Cl)cc2)[C@@H](C)CN([C@@H](C)CO)C3=O)n(C)n1	29
COc1ccc(NC(=O)N(C)C[C@H]2Oc3ccc(NC(=O)Nc4c(C)noc4C)cc3C(=O)N([C@@H](C)CO)C[C@H]2C)cc1	-9
C[C@H]1CN([C@@H](C)CO)C(=O)c2cccc(NC(=O)C3CCOCC3)c2O[C@H]1CN(C)C	9

A draw from above in order of number of heavy atoms, rising:
SMILES	NOMO-1 viab
Cc1ccc(NC(=O)C(C)n2cc([N+](=O)[O-])cn2)cc1C (configuration not stated)	3
CCOc1ccc(NC(=O)CC2C(=O)NCCN2C(=O)c2ccccc2)cc1 (configuration not stated)	-7
O=C(Nc1ccccc1C(=O)O)c1cccc(NS(=O)(=O)c2ccc(Cl)cc2)c1	-10

(next part)
SMILES	NOMO-1 viab
Cc1noc(C)c1NC(=O)N(C)C[C@@H]1Oc2ccc(NS(=O)(=O)c3cn(C)cn3)cc2C(=O)N([C@H](C)CO)C[C@@H]1C	-13
Nc1nnc(SCC(=O)NC2CCCCC2)n1-c1ccccc1	27
C[C@@H]1CCCCO[C@H](CN(C)Cc2ccc(C(F)(F)F)cc2)[C@@H](C)CN([C@H](C)CO)C(=O)c2cc(NC(=O)Nc3ccc(C(F)(F)F)cc3)ccc2O1	113*
C[C@@H]1CN([C@@H](C)CO)C(=O)Cc2cc(NC(=O)Nc3cccc4ccccc34)ccc2O[C@@H]1CN(C)C(=O)Nc1ccccc1	26
CC(=O)N[C@H]1[C@H](O[C@@H]2[C@@H](O)[C@H](C)O[C@@H](Oc3ccc4c(=O)c(-c5ccc(O)cc5)coc4c3)[C@@H]2O)O[C@H](CO)[C@@H](O[C@@H]2O[C@@H](C)[C@H](O)[C@@H](O)[C@H]2O)[C@@H]1O	-13
C[C@@H]1CN([C@@H](C)CO)C(=O)c2cccc(NC(=O)CCCCCC(=O)Nc3ccccc3N)c2O[C@@H]1CN(C)C(=O)Nc1cccc2ccccc12	63
COc1ccc(S(=O)(=O)Nc2cccc3c2O[C@@H](CN(C)CC2CCCCC2)[C@@H](C)CN([C@H](C)CO)C3=O)cc1	34
C[C@@H]1CN([C@@H](C)CO)C(=O)Cc2cc(N(C)C)ccc2O[C@@H]1CN(C)Cc1ccc(C(F)(F)F)cc1	18
O=C(NCc1ccco1)C1OCCc2ccccc21 (configuration not stated)	-7
COc1ccc(CN(C)C[C@@H]2Oc3ccc(NC(=O)Nc4ccccc4)cc3C(=O)N([C@H](C)CO)C[C@H]2C)cc1	-1
Cc1cc(O)c(C(=O)/C=C/N(C)C)c(=O)o1	30
COc1ccc(NC(=O)N(C)C[C@H]2Oc3ccc(NC(=O)CCCCCC(=O)Nc4ccccc4N)cc3CC(=O)N([C@@H](C)CO)C[C@H]2C)cc1	24
C[C@@H]1CN([C@H](C)CO)C(=O)c2cccc(NS(=O)(=O)c3ccc(Cl)cc3)c2O[C@@H]1CN(C)Cc1ccc(C(=O)Nc2ccccc2N)cc1	126*
C[C@@H]1CN([C@@H](C)CO)C(=O)c2cc(NC(=O)CCC(F)(F)F)ccc2O[C@H]1CN(C)S(C)(=O)=O	2
C[C@H]1CN([C@@H](C)CO)C(=O)Cc2cc(NC(=O)Cn3cnnn3)ccc2O[C@H]1CN(C)CC1CCCCC1	12
Cc1noc(C)c1NC(=O)Nc1ccc2c(c1)C(=O)N([C@H](C)CO)C[C@H](C)[C@@H](CN(C)C(=O)Nc1ccc3c(c1)OCO3)OCCCC[C@@H](C)O2	10
C[C@@H]1CN([C@H](C)CO)C(=O)Cc2cc(NS(=O)(=O)c3ccccc3)ccc2O[C@@H]1CN(C)S(=O)(=O)c1ccccc1	9
Cc1noc(C)c1NC(=O)N(C)C[C@H]1Oc2c(NC(=O)Nc3ccc(C(F)(F)F)cc3)cccc2C(=O)N([C@@H](C)CO)C[C@H]1C	20
C[C@@H]1CN([C@H](C)CO)C(=O)c2cccc(NC(=O)C3CC3)c2O[C@H]1CN(C)S(=O)(=O)c1ccc(F)cc1	1
Cc1noc(C)c1S(=O)(=O)Nc1ccc2c(c1)C(=O)N([C@H](C)CO)C[C@@H](C)[C@H](CN(C)S(=O)(=O)c1ccccc1)O2	6
C[C@H](CO)N1C[C@H](C)[C@H](CN(C)C)Oc2ccc(NS(=O)(=O)c3ccc(F)cc3)cc2C1=O	14
COC(=O)C1=CO[C@@H](O[C@@H]2O[C@H](CO)[C@@H](O)[C@H](O)[C@H]2O)[C@@H]2[C@@H](CO)C=C[C@H]12	-3
C[C@@H]1CCCCO[C@@H](CN(C)C(=O)Nc2ccccc2)[C@@H](C)CN([C@H](C)CO)C(=O)c2cc(NC(=O)CCC(F)(F)F)ccc2O1	22
CCCn1c2ccccc2c2nnc(Sc3ccc4nsnc4c3[N+](=O)[O-])nc21	105*

Gathered by group, those above with an aryl thioether with sulfur outside any ring (7)
SMILES	NOMO-1 viab
Cc1nnc(SCC(=O)Nc2sc3c(c2C#N)CCC(C(C)(C)C)C3)s1 (configuration not stated)	40
C=CCn1c(SCc2nc3ccccc3[nH]2)nnc1-c1cccc(C)c1	1
COc1ccc(-n2c(SCC(=O)N(c3ccccc3)c3ccccc3)nc3ccccc3c2=O)cc1	20
COc1ccc(C(=O)CSc2ncn(-c3ccccc3)n2)cc1OC	6
Cc1oc2nc(SCC(=O)N3CCCCC3)nc(N)c2c1C	-11
Nc1nnc(SCC(=O)NC2CCCCC2)n1-c1ccccc1	27
CCCn1c2ccccc2c2nnc(Sc3ccc4nsnc4c3[N+](=O)[O-])nc21	105*
